TRPML1 ag: qHTS for Agonists of the Human Mucolipin Transient Receptor Potential 1 (TRPML1). Mucolipin-1 (Homo sapiens), Q9GZU1. TRPML1-expressing cells, Ca2+ dye fluorescence, FDSS; host cell line not named in the record; reference of the full effect not given here. activation, % (no concentration beside the values). 0.12% of 410,000 active. AID 624414, 2012; in the data active = activation above about 50%; inconclusive = about 30% to 50%; inactive = below about 30%; also: 0% is about no effect; the text of the record puts the active cut at 80%
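In this qHTS format, compounds were pin-transferred onto Ca8-dye-loaded TRPML1-DL cells induced with Tet overnight, and intracellular Ca2+ fluorescence was recorded kinetically for 110 s after a 10 s baseline. A subsequent 4uM final 54-4 (EC80) addition followed by a second 110 s read served as the antagonist phase.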
D2 PAM: Beta-Arrestin HTS for Positive Allosteric Modulators of the Human D2 Dopamine Receptor: Potentiators. D(2) dopamine receptor (Homo sapiens), P14416. DiscoveRx D2 beta-arrestin cells, luminescence, 90 min; 100% = 57 uM dopamine signal. potentiation, % (no concentration beside the values). 0.23% of 360,000 active. AID 624464, 2012; active = potentiation of 50% or more; inconclusive = 30% to 50%; inactive = 30% or less;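 also: compound concentration not given in the record; tested on top of an EC20 dose of dopamine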
Target sequence (P14416 whole entry, looked up): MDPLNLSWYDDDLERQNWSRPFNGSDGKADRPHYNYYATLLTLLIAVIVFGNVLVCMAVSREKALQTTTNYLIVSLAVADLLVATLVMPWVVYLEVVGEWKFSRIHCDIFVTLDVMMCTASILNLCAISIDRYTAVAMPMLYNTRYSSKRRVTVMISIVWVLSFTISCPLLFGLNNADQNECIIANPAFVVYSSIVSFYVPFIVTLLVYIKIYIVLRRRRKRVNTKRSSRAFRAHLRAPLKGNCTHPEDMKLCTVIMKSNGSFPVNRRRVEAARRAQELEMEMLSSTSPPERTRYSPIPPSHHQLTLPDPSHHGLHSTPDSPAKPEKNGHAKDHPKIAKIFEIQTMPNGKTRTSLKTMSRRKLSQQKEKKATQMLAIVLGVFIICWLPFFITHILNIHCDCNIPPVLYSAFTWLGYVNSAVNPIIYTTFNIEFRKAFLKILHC
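PathHunter D2 cells, attached overnight at 37 deg C, received compound in DMSO plus dopamine at EC20 (50 nM final) for 90 min at 37 deg C. Beta-arrestin recruitment was read as luminescence after 1 h with detection reagent at ambient temperature.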
D2 ag: Beta-Arrestin HTS for Positive Allosteric Modulators of the Human D2 Dopamine Receptor: Agonists; 0.084% of 360,000 active; DiscoveRx PathHunter D2 beta-arrestin, luminescence, 90 min; 100% = 57 uM dopamine signal; D(2) dopamine receptor (Homo sapiens), P14416; activation, % (no concentration beside the values); in the data active = activation above about 40%; inconclusive = about 15% to 40%; inactive = below about 15%; also: compound concentration not given in the record; the text of the record calls up to 30% inactive
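DiscoveRx PathHunter D2 beta-arrestin cells (2,100/well) attached overnight, then compound-stimulated 90 min at 37 C in HBSS/10 mM HEPES/0.1% Tween-20 buffer; beta-galactosidase complementation read by luminescence after 1 h at ambient temperature. Dopamine 57 uM final (EC100) as control.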
Six1-Eya2 blk: qHTS Assay for Inhibitors of the Six1/Eya2 Interaction | 0.56% of 360,000 active | activity change, % (no concentration beside the values) | AlphaScreen GST-Six1/His-Eya2 binding, biochemical; stronger effect = lower value; control for the full effect not named in the record; in the data active = activity change below about -65%; inconclusive = about -30% to -65%; inactive = above about -30%; also: % is scaled to controls: 0 for no effect and ±100 for the full control effect; compound concentration not given in the record
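Compounds are tested against tagged Six1 and Eya2 proteins bridged by glutathione donor and nickel acceptor beads; after a one-hour incubation at 37 °C without light, AlphaScreen emission is recorded.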
PINK1 expr mod: A Quantitative High throughput Screen to Identify Chemical Modulators of PINK1 Expression. PINK1 immunofluorescence, high-content cytometry, 24 h. Potency, µM (titrated, usually from 76.6 µM), inactives show top-dose activation (PINK1 increase), actives largely listed as activators. 0.2% of 410,000 active. AID 624263, 2012; active = well fitted activation curve with a large enough effect; inconclusive = small, poorly fitted or top-dose-only effect; inactive = flat fitted curve, though single readings scatter; cell line not stated here;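 also: potency is read from the fitted curve at half-maximal effect; % of control where 0% means no effect; nearly all actives have a fitted effect of over 65% in size; a mitochondrial uncoupler was the plate control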
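Cells are seeded, rested 12 hours, then given compound at five concentrations or DMSO for 24 hours. After fixation, blocking and antibody staining, PINK1 amount and mitochondrial localization are scored; CCCP serves as control.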
CtBP-E1A blk: qHTS Assay for Inhibitors of the CtBP/E1A Interaction; CtBP / adenovirus E1A interaction (AlphaScreen); AlphaScreen GST-E1A/His-CtBP binding, 1536-well; stronger effect = lower value; control for the full effect not named in the record; activity change, % (test concentration not listed); 0.49% of 340,000 active; AID 651724, 2012; in the data active means activity change below about -65%; inconclusive means about -30% to -65%; inactive means above about -30%; also: % is scaled to controls: 0 for no effect and ±100 for the full control effect; compound concentration not given in the record
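Steps: dispense buffer (Tris pH 8.0, NaCl 300 mM, TCEP 1 mM, BSA, Tween 20); add 5X protein mix (GST-E1A, His-CtBP, 125 nM each); pin 23 nL compound; 2 h at 37 °C, dark; add 5X beads (50 ug/mL); 1 h; read.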
* marks the source's active call; other numbers are inactive results; u = inconclusive; x = no result given; [ ] = another dose, or the depositor's remark.

SMILES | TRPML1 ag | D2 PAM | D2 ag | Six1-Eya2 blk | PINK1 expr mod | CtBP-E1A blk
CN(CCc1ccccc1)C(=O)c1cccc(NC(=O)Cc2cccc(NC(=O)C3CCCN(C(=O)CCc4ccccc4)C3)c2)c1 (configuration not stated) | 0.0 | x | 1.6 | -6 | -0.7% | -6
Cc1cc(Br)c2c(c1)/C(=C/C(=O)c1cccs1)C(=O)N2 | 0.8 | -20 | -2.6 | -1 | -2.4% | 17
COc1ccc(C(C)=O)cc1CSc1nc2cc(Cl)ccc2o1 | 0.4 | -7 | -3.5 | 4 | 3.2% | -1
CC(=O)N1CCCc2cc(S(=O)(=O)NC(C(=O)NC3CCCCC3)C(C)C)ccc21 (configuration not stated) | -0.1 | -16 | -1.7 | 5 | 0.8% | 0
CCN(c1cccc(C)c1)C1C(=O)c2ccccc2N1C(C)=O (configuration not stated) | -0.8 | -8 | 2.8 | 2 | -2.7% | 1
CC12CCC(C(=O)NNC(=O)c3ccccc3)(OC1=O)C2(C)C (configuration not stated) | 0.3 | -4 | -3.5 | 0 | -0.3% | 27
O=C(CCN1CCN(Cc2ccccc2)CC1)NNC(=O)Nc1cccc(Cl)c1 | 1.6 | -35 | -5.7 | -8 | 0.7% | -10
Cc1cc(NC(=O)CSc2nnc(C)n2-c2ccccc2C)no1 | -0.6 | 2 | -3.1 | -29 | 1.5% | 4
NC(=O)c1nn(CC(=O)Nc2cccc(S(=O)(=O)N3CCCC3)c2)c(=O)c2ccccc12 | -0.7 | -3 | -0.5 | -5 | -0.8% | x
O=C(c1ccccc1NS(=O)(=O)c1cccs1)N1CCOCC1 | -0.4 | 4 | -0.3 | 2 | 2.5%[38.3 µM] | 5
CCN1C(=O)C2C(c3cccc(F)c3)NC(CC)(C(=O)OC)C2C1=O (configuration not stated) | -0.4 | -7 | -1.6 | 4 | 1.8% | -5
COc1ccc(/C=C/C(=O)OCC(=O)N2CCCC2)c(OC)c1 | 0.0 | -8 | -1.1 | 8 | -1.9% | -8
CCC(=O)Nc1c(-c2ccc(OC)cc2)c(=O)c2ccccc2n1C | -0.7 | -11 | -0.9 | 4 | -0.7% | 7
COc1nc(N(C#N)CC(N)=O)nc(N2CCCC2)n1 | -0.2 | 10 | 0.4 | -3 | -0.5% | 0
COc1ccccc1N(CN1CCCC1=O)C(=O)c1ccccc1F | 0.1 | -14 | -2.3 | 7 | 1.6%[38.3 µM] | 0
Cc1cc(C)nc(N/N=C/c2cc(Br)ccc2O)n1 | -0.7 | -31 | -4.0 | u | 1.5% | -81*
COc1cccc(NC(=O)N2CCc3nc(Nc4cc(Cl)cc(Cl)c4)ncc3C2)c1 | -0.5 | 1 | 4.1 | -5 | 14% | -8
CCCCN1C(=N)N([C@@H](CCC)CN2CCC[C@H]2CN2C(N)=NC[C@@H]2Cc2ccccc2)C[C@H]1Cc1ccccc1 | -0.7 | -30 | -4.0 | 2 | 3.2% | 0
COc1ccccc1-c1nnc(-c2ccc(N3CCOCC3)cc2)o1 | -0.4 | -14 | -1.1 | -3 | -1.2% | -3
CC(=O)O/N=C/c1c(C)c(C=O)n2ccccc12 | 0.0 | -8 | -0.5 | -11 | -1.6% | -16
C=CCn1c(COc2ccccc2C)nnc1SCC(=O)O | 0.2 | -18 | 1.5 | -1 | 0.8% | -2
COc1ccc(S(=O)(=O)NCCc2c[nH]c3ccc(C)cc23)cc1 | 1.1 | -2 | 0.5 | -8 | -0.5% | 7
COC(=O)CNC(=O)c1cc(-c2ccncc2)nc2ccc(C)cc12 | -0.2 | -11 | 11 | 0 | 0.4% | 0
OC(CCN1CCC2(CC1)OCCO2)C(F)(F)F (configuration not stated) | 0.4 | 0 | -1.6 | 3 | 1.8% | -2
C/C(Cn1nc([N+](=O)[O-])cc1C)=N\NC(=O)c1ccc(C(C)(C)C)cc1 | 0.0 | -2 | -1.5 | -3 | -0.4% | 3

Taken from the listing (15 entries):
SMILES | TRPML1 ag | D2 PAM | D2 ag | Six1-Eya2 blk | PINK1 expr mod | CtBP-E1A blk
CCN1C(=O)C2C(c3cccc(F)c3)NC(CC)(C(=O)OC)C2C1=O (configuration not stated) | -0.4 | -7 | -1.6 | 4 | 1.8% | -5
COc1ccc(/C=C/C(=O)OCC(=O)N2CCCC2)c(OC)c1 | 0.0 | -8 | -1.1 | 8 | -1.9% | -8
CCC(=O)Nc1c(-c2ccc(OC)cc2)c(=O)c2ccccc2n1C | -0.7 | -11 | -0.9 | 4 | -0.7% | 7
COc1nc(N(C#N)CC(N)=O)nc(N2CCCC2)n1 | -0.2 | 10 | 0.4 | -3 | -0.5% | 0
COc1ccccc1N(CN1CCCC1=O)C(=O)c1ccccc1F | 0.1 | -14 | -2.3 | 7 | 1.6%[38.3 µM] | 0
Cc1cc(C)nc(N/N=C/c2cc(Br)ccc2O)n1 | -0.7 | -31 | -4.0 | u | 1.5% | -81*
COc1cccc(NC(=O)N2CCc3nc(Nc4cc(Cl)cc(Cl)c4)ncc3C2)c1 | -0.5 | 1 | 4.1 | -5 | 14% | -8
CCCCN1C(=N)N([C@@H](CCC)CN2CCC[C@H]2CN2C(N)=NC[C@@H]2Cc2ccccc2)C[C@H]1Cc1ccccc1 | -0.7 | -30 | -4.0 | 2 | 3.2% | 0
COc1ccccc1-c1nnc(-c2ccc(N3CCOCC3)cc2)o1 | -0.4 | -14 | -1.1 | -3 | -1.2% | -3
CC(=O)O/N=C/c1c(C)c(C=O)n2ccccc12 | 0.0 | -8 | -0.5 | -11 | -1.6% | -16
C=CCn1c(COc2ccccc2C)nnc1SCC(=O)O | 0.2 | -18 | 1.5 | -1 | 0.8% | -2
COc1ccc(S(=O)(=O)NCCc2c[nH]c3ccc(C)cc23)cc1 | 1.1 | -2 | 0.5 | -8 | -0.5% | 7
COC(=O)CNC(=O)c1cc(-c2ccncc2)nc2ccc(C)cc12 | -0.2 | -11 | 11 | 0 | 0.4% | 0
OC(CCN1CCC2(CC1)OCCO2)C(F)(F)F (configuration not stated) | 0.4 | 0 | -1.6 | 3 | 1.8% | -2
C/C(Cn1nc([N+](=O)[O-])cc1C)=N\NC(=O)c1ccc(C(C)(C)C)cc1 | 0.0 | -2 | -1.5 | -3 | -0.4% | 3

The listing picks up; the two compounds before the break are reprinted first.
SMILES | TRPML1 ag | D2 PAM | D2 ag | Six1-Eya2 blk | PINK1 expr mod | CtBP-E1A blk
OC(CCN1CCC2(CC1)OCCO2)C(F)(F)F (configuration not stated) | 0.4 | 0 | -1.6 | 3 | 1.8% | -2
C/C(Cn1nc([N+](=O)[O-])cc1C)=N\NC(=O)c1ccc(C(C)(C)C)cc1 | 0.0 | -2 | -1.5 | -3 | -0.4% | 3
NC(=O)NC(CC(=O)NNC(=O)c1ccccn1)c1ccccc1Cl (configuration not stated) | 1.1 | 2 | u | -65* | 0.7% | -79*
COc1ccc(/C(N)=N/OC(=O)C2CCC(=O)N2S(=O)(=O)c2ccc(C)cc2)cc1 (configuration not stated) | 0.7 | 2 | 0.6 | 11 | 1.5% | -2
O=C(NCc1ccccc1)c1cccc2c(-c3cccnc3)coc12 | -0.9 | -5 | 11 | u | 2.1% | u
CC(/C=C/c1ccco1)=N\NC(=O)c1cc(C)[nH]n1 | 3.4 | -9 | -2.3 | -24 | 3.6%[38.3 µM] | -19
O=C(CN1C(=O)NC2(CCCCCCC2)C1=O)NCc1ccc(Cl)cc1 | 4.3 | -2 | 4.9 | 4 | -0.1% | 3
COc1cccc(C(C#N)NCCCNC(C#N)c2cccc(OC)c2OC)c1OC (configuration not stated) | 0.6 | -10 | -0.2 | 5 | 4.3% | 9
COC(=O)CN1C(=S)N(C)C(=O)/C1=C/c1cccs1 | 0.4 | -9 | -12 | -2 | 1.7% | x
CCN(Cc1ccccc1)C(=O)C1CCN(CC2CC=CCC2)CC1 (configuration not stated) | -0.2 | -28 | -0.2 | -3 | -1.2% | -4
Cc1cccc2cc(CN(CC3CCCO3)C(=O)c3cnccn3)c(=O)[nH]c12 (configuration not stated) | 0.0 | -2 | -3.5 | -1 | -1.7% | -13
CCOC(=O)CSc1nc2ccccc2c(=O)n1CC1CCCO1 (configuration not stated) | -0.1 | -13 | -0.8 | 0 | 4.7% | 11
O=C(Nc1ccc2nn(-c3ccccc3)nc2c1)c1ccc2c(c1)OCO2 | -1.0 | 2 | 10 | 0 | 4.7% | -1

Source: PubChem BioAssay (National Center for Advancing Translational Sciences (NCATS))
